# EPAC2 antag: Validation qHTS for antagonist of cAMP-regulated guanine nucleotide exchange factor 4 (EPAC2). Rap guanine nucleotide exchange factor 4 (Homo sapiens), Q8WZA2. EPAC2 Rap1B BODIPY-GDP exchange, fluorescence. Potency, µM (doses to about 112 µM), for the others: at the top dose activity, negative = inhibition, hits mostly inhibitors. hit rate 1.7% among 16,000. AID 1645886, 2021; active means well fitted inhibition curve with a large enough effect; inconclusive means small, poorly fitted or top-dose-only effect; inactive means no such curve, though single readings can be large or run the other way;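 further: 100% = activation by cAMP agonist control; nearly all actives have a fitted effect of over 40% in size; the record reuses the description of the EPAC1 agonist screen; inactives centre near -10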
# Target sequence (Q8WZA2 whole entry, looked up): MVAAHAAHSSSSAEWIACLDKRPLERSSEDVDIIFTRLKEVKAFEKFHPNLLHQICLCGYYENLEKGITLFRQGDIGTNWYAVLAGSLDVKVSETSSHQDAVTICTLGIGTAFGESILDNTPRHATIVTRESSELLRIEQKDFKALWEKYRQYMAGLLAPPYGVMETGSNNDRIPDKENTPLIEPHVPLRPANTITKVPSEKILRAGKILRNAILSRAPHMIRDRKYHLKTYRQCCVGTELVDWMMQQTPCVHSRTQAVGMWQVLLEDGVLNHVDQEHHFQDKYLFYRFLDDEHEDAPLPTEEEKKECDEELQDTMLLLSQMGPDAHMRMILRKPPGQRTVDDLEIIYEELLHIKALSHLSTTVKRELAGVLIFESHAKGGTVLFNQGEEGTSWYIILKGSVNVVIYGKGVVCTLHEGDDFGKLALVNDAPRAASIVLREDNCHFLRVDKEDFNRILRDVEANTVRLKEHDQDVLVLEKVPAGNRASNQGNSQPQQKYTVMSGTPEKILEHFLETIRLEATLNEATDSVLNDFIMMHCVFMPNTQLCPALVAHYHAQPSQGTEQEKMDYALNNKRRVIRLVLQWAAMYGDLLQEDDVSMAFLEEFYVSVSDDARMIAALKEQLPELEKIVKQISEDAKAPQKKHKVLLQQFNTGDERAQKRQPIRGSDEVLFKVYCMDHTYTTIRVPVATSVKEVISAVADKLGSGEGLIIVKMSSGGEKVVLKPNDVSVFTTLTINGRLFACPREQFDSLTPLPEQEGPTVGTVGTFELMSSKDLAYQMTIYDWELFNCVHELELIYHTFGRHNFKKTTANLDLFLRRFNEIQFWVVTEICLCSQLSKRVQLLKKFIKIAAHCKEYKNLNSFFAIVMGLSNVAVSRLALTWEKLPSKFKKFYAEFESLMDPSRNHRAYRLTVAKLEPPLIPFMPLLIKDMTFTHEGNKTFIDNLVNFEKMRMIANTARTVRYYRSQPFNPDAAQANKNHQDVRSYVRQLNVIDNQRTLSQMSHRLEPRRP
#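 Fluorescent exchange read-out: 100 nM EPAC2 with 250 nM RAP1B–BODIPY-GDP and 50 uM GDP; BODIPY-GDP release lowers fluorescence. Read at 480/540 nm every 5 min for 30 min at room temperature; normalized to 6.5 mM cAMP.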
# * marks the source's active call; other numbers are inactive results; u = inconclusive; & = joins results of further samples; [ ] = another dose, or the depositor's remark. Potency means the concentration at half of the fitted maximal effect. Some of the compounds tested. The share of hits here may be higher or lower than overall.
item	Compound	EPAC2 antag
1	Cc1cc(O)c(C=O)c2c1C(=O)Oc1c(COC(=O)/C=C/C(=O)O)c(O)c(C(=O)O)c(C)c1O2	33.8%[activator]
2	CC(C)(C)C1CCC(=O)N(CCOc2ccccc2)CC1 (stereo unspecified)	u
3	O[C@@H]1CO[C@H]2[C@@H]1OC[C@@H]2O	14.0%
4	COc1cc([C@@H]2c3cc4c(cc3C(OC3OC5COC(C)OC5C(O)C3O)C3COC(=O)[C@@H]32)OCO4)cc(OC)c1O (stereo partly specified)	-10.7%
5	COc1ccc(CNc2nc(-c3ccccc3OC)nc3ccccc23)c(OC)c1	-22.8%
6	CC(C)C(NC(=O)C(Cc1ccc(O)cc1)NC(=O)C(NC(=O)C(F)(F)F)C(C)C)C(=O)O (stereo unspecified)	-0.1%
7	COc1cc(=O)n2c(c1C(=O)N(C)Cc1cscn1)CCN(Cc1ccc3c(c1)OCCO3)CC2	u
8	CCOc1cccc(CN2CCC(n3cc(C(=O)N4CCCCC4)nn3)CC2)c1O	-4.6%
9	O=c1c(-c2ccc(F)cc2)nc2cnc(N3CCOCC3)nc2n1C1CC1	3.3%
10	Nc1ccc(C(=O)O)c(O)c1 (tested in a mixture with another compound)	-9.3%
11	CN1CCN(c2ncc3nc(-c4cc(F)cc(F)c4)c(=O)n(CCc4ccccc4)c3n2)CC1	-22.1%
12	Cc1sc2ccccc2[n+]1Cc1ccccc1	-13.4%

# Pulled one by one from the list above:
item	Compound	EPAC2 antag
9	O=c1c(-c2ccc(F)cc2)nc2cnc(N3CCOCC3)nc2n1C1CC1	3.3%
3	O[C@@H]1CO[C@H]2[C@@H]1OC[C@@H]2O	14.0%
6	CC(C)C(NC(=O)C(Cc1ccc(O)cc1)NC(=O)C(NC(=O)C(F)(F)F)C(C)C)C(=O)O (stereo unspecified)	-0.1%
4	COc1cc([C@@H]2c3cc4c(cc3C(OC3OC5COC(C)OC5C(O)C3O)C3COC(=O)[C@@H]32)OCO4)cc(OC)c1O (stereo partly specified)	-10.7%
12	Cc1sc2ccccc2[n+]1Cc1ccccc1	-13.4%

# Continuation:
item	Compound	EPAC2 antag
13	O=[N+]([O-])c1ccc(/C=N\O)o1	-13.7%
14	CCOC(=O)/C=C/c1ccc(C(F)(F)F)cc1S(=O)(=O)NC(C)(C)C	u
15	Cn1c(=O)c(CCc2ccccc2)nc2cnc(Oc3ccccc3)nc21	-29.1%
16	NC(=O)CC[C@@H](N)C(=O)O	0.0%
17	Cc1ccc(-c2ccnc(-n3ncc(C(=O)N4CCCCC4c4cccnc4)c3C3CC3)n2)o1 (stereo unspecified)	-7.1%
18	CC(C)C[C@H]1C(=O)N2CCC[C@H]2[C@]2(O)O[C@](NC(=O)[C@@H]3C=C4c5cccc6[nH]c(Br)c(c56)C[C@H]4N(C)C3)(C(C)C)C(=O)N12	-18.6%&-11.3%
19	Cc1cc(C(C#N)c2ccc(Cl)cc2)c(Cl)cc1NC(=O)c1cc(I)cc(I)c1O (stereo unspecified)	-6.6%
20	CCCCCCCCN1[C@@H](CC(=O)O)c2ccc(C(F)(F)F)cc2S1(=O)=O	u
21	CC(C)(C)CC(C)(C)N=C1Nc2ccccc2N[C@]12C[C@H]1CCCC(=O)N3CC[C@@H](C2)[C@@H]13	u
22	Cn1cccc1C(=O)N1CCC2(CC1)CCN(c1ncccn1)CC2	-21.9%
23	O=C(OC[C@H]1O[C@@H](OC(=O)c2cc(O)c(O)c(OC(=O)c3cc(O)c(O)c(O)c3)c2)[C@H](OC(=O)c2cc(O)c(O)c(OC(=O)c3cc(O)c(O)c(O)c3)c2)[C@@H](OC(=O)c2cc(O)c(O)c(OC(=O)c3cc(O)c(O)c(O)c3)c2)[C@@H]1OC(=O)c1cc(O)c(O)c(OC(=O)c2cc(O)c(O)c(O)c2)c1)c1cc(O)c(O)c(OC(=O)c2cc(O)c(O)c(O)c2)c1	22.4µM*
24	COc1cccc(-c2nc3cc4c(cc3cc2CN(C(=O)c2cc(C)nn2C)C2CC2)CCC4)c1OC	u

# A second format for 4 compounds above.
(19) Cc1cc(C(C#N)c2ccc(Cl)cc2)c(Cl)cc1NC(=O)c1cc(I)cc(I)c1O (stereo unspecified)
- EPAC2 antag: -6.6%

(20) CCCCCCCCN1[C@@H](CC(=O)O)c2ccc(C(F)(F)F)cc2S1(=O)=O
- EPAC2 antag: u

(21) CC(C)(C)CC(C)(C)N=C1Nc2ccccc2N[C@]12C[C@H]1CCCC(=O)N3CC[C@@H](C2)[C@@H]13
- EPAC2 antag: u

(22) Cn1cccc1C(=O)N1CCC2(CC1)CCN(c1ncccn1)CC2
- EPAC2 antag: -21.9%
